# Mtb betalactam – beta-lactam sensitization of Mtb H37Rv | M. tuberculosis H37Rv growth with meropenem, percent inhibition; hits of this screen are not shown here | inhibition, % at 25 µM | actives 0.27% (n = 330,000) | AID 434955;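 active = about 74% or more and at least 40 points above the plate without the antibiotic, then above 30% in a dose series; inconclusive = first-round hits that could not be retested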;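 note: growth measured after seven days incubation then overnight dye step; 0% = bacteria only wells and 100% = bacteria with antibiotic; twin plates without the antibiotic show which effects depend on it; some results filed as inactive read as strong as hits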
# YopH inh – YopH (Yersinia) phosphatase inhibition | fluorescence Ex485/Em525 | inhibition, %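 (about 10 µM by stock and volumes)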 | actives 0.16% (n = 140,000);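 active = inhibition of 50% or more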;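 note: controls were vehicle for no effect and minimum signal wells for full effect; inactives centre near -20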
# Arbovirus inh – blocks arbovirus infection | inhibition, % at 10 µM | AID 1251 | arbovirus infection cell-based antiviral screen | actives 0.37% (n = 200,000);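 active = inhibition from about 30%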;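 note: bluetongue infection of BSR cells; cell survival read as ATP light after 72 h; 0% = infected wells without compound and 100% = uninfected wells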
# Mtb growth – M. tuberculosis H37Rv growth inhibitors, H37Rv strain (AID 1626); M. tuberculosis H37Rv growth inhibition; higher % means a stronger effect; inhibition, % at 10 µM, or IC50 in µM where a hit was titrated; actives 0.95% (n = 220,000);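 active = confirmed in a dose series; inconclusive = inhibition above 80% but not taken into the dose series; inactive = below 80% or under 30% at every dose of the series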;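 note: bacteria incubated seven days before Alamar blue readout; 0% = bacteria only wells and 100% = bacteria with antibiotic wells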
# RecA splice inh – inhibitors of M. tuberculosis RecA intein splicing; inhibition, %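 (about 9 µM by stock and volumes)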; actives 0.75% (n = 290,000); cell-free RecA intein splicing, fluorescence; P9WHJ3; AID 2221; in the data active = inhibition above about 30%; inconclusive = no clear call, values can overlap the other calls;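 note: 0% = vehicle wells and 100% = reference inhibitor control wells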
# Target sequence (P9WHJ3 whole entry, looked up, canonical isoform): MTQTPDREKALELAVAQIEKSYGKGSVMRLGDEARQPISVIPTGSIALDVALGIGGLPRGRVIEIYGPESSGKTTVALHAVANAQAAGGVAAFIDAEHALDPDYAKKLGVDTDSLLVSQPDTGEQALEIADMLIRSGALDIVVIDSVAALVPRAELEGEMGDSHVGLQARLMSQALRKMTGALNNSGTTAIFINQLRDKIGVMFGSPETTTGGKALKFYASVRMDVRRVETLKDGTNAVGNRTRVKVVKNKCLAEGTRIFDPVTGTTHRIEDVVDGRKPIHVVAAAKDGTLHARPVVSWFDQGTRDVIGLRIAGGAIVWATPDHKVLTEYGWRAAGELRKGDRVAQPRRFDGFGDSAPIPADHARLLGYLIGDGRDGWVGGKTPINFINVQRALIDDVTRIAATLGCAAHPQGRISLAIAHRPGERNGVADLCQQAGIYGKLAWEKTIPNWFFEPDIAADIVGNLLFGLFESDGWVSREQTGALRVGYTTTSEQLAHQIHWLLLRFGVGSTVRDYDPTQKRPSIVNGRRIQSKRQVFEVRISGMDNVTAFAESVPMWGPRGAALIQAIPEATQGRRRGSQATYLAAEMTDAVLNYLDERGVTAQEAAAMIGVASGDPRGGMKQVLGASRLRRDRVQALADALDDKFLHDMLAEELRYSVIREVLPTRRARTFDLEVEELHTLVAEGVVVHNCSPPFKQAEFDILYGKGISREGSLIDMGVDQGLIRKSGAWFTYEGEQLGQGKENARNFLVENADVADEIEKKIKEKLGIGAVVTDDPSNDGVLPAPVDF
# Arbovirus inh repeat – further read-out of Arbovirus inh, marked with its call; inhibition, %; measured here: 10K subset replicate screen; many hits read low in the repeat;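 first of two repeat runs on a subset; 0% = infected and 100% = uninfected wells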
# * = called active by the depositor; ? = inconclusive; · = not tested or not shown. Some of the compounds tested; the hit share may differ from the screen's.
SMILES,Mtb betalactam,YopH inh,Arbovirus inh,Mtb growth,RecA splice inh,others
CCOC(=O)N1CCN(C(=O)c2cnn3c(C(F)F)cc(-c4ccc(C)cc4)nc23)CC1,-4,11,-5,-4%,-3.3,
COc1cc(=O)n2c(-c3ccccc3)csc2n1,-13,-37,-8,-3%,-0.7,
CCCCNC(=O)C1c2ccccc2Oc2ccccc21,1,·,2,-3%,5.1,
CCOC(=O)N1CCC(=NNC(=O)COc2ccc(OC)cc2)CC1,11,-14,-5,-4%,-3.2,
CCN(CC)c1ccc(S(=O)(=O)N(CC)CC)cc1NC(=O)c1cccnc1,-10,·,-2,-2%,-2.0,
Cc1cc(-n2cccn2)ccc1CN1CCN(CC(C)C)C(CCO)C1 (centres undefined),-7,·,·,-2%,0.2,
N#CCCN1CCN(C(=S)c2ccc(-c3cccc(Cl)c3)o2)CC1,74,-23,6,-4%,5.3,Arbovirus inh repeat=4
Cc1ccc(CNC(=O)C2CCN(S(=O)(=O)c3cccnc3)CC2)cc1,21,·,·,·,-2.0,
CC1(C)Oc2ccc(NC(=O)c3ccco3)cc2O1,-8,-66,-7,4%,1.1,
CCc1ccccc1N(CC(=O)NCCSCc1ccco1)S(C)(=O)=O,5,-54,-4,-7%,·,
O=C(OCn1nnc2ccccc2c1=O)C1CCCCC1,100,-34,4,65%,-1.1,
Cc1cc(OC(C)C(=O)NCCCN2CCOCC2)ccc1Cl (centres undefined),-5,·,·,·,-0.4,
CCCNC(=O)NC(=O)COC(=O)c1cccc(NS(=O)(=O)c2ccc(F)c(F)c2)c1,0,-5,16,0%,0.8,
COc1ccc(CCN2C(=O)CSC2c2ccc(F)cc2)cc1 (centres undefined),-5,·,·,·,3.2,
N#Cc1cccc2cnccc12,-18,-4,5,·,·,
Cc1ccc(Oc2ccc(C(=O)NCc3ccncc3)cc2)cc1,·,·,-4,2%,0.9,
Cc1ccc(NCc2nnc(SCC(=O)O)n2-c2ccc(C)cc2)cc1,-6,·,-1,-5%,-2.8,
COc1ccccc1-c1cc(C(F)(F)F)n2ncc(C(=O)N3CCc4ccccc4C3)c2n1,81,·,·,·,3.1,
CCOc1ccccc1C(=O)N1c2ccccc2Sc2ccccc21,-5,-3,-9,4%,15,
CC(C)=CCN1CCN(Cc2ccc(Oc3ncccn3)cc2)CC1CCO (centres undefined),-7,·,-8,3%,-0.7,

# For reference, part of the list above.
SMILES,Mtb betalactam,YopH inh,Arbovirus inh,Mtb growth,RecA splice inh,others
CCOc1ccccc1C(=O)N1c2ccccc2Sc2ccccc21,-5,-3,-9,4%,15,
CC(C)=CCN1CCN(Cc2ccc(Oc3ncccn3)cc2)CC1CCO (centres undefined),-7,·,-8,3%,-0.7,

# Returning to the listing, starting two compounds before the break.
SMILES,Mtb betalactam,YopH inh,Arbovirus inh,Mtb growth,RecA splice inh,others
CCOc1ccccc1C(=O)N1c2ccccc2Sc2ccccc21,-5,-3,-9,4%,15,
CC(C)=CCN1CCN(Cc2ccc(Oc3ncccn3)cc2)CC1CCO (centres undefined),-7,·,-8,3%,-0.7,
COc1cccc(-c2nn3c(-c4cccc(C)c4)nnc3s2)c1,61,-34,-1,11%,-0.8,
Cc1c(Cl)cccc1NC(=O)CNc1ccccc1F,-2,-19,8,?,2.3,
Cc1ccc2c(CC(=O)NCc3ccco3)coc2c1C,-1,-40,-21,7%,2.9,
COC(=O)\C(C(C)=O)=C(/C=C/C=C/N(C)C)N(C)C,-2,-13,-1,-5%,0.1,
CCc1ccc(OC(=O)CN2C(=O)c3ccccc3C2=O)cc1,4,·,·,·,-2.6,
Cc1ccc(Nc2nc(CSc3nnc(-c4cccs4)o3)cs2)cc1,98,-16,12,6.8µM*,-3.0,
O=C(NCCCN1CCCC1=O)c1ccccc1NS(=O)(=O)c1ccc(Br)cc1,1,-14,8,-9%,-2.0,
Cc1cc(-c2ccccc2)c(C#N)c(N)n1,3,-10,-6,1%,-11,
N/C(=N\c1nc2ccccc2o1)NC(=O)c1ccccc1Br,·,·,·,13%,11,
CC(=O)c1cccc(NC(=O)Nc2cnn(Cc3ccc(F)cc3)c2)c1,·,-39,-24,9%,2.2,
COc1ccc(OC)c(/C=N\Nc2nccs2)c1,2,·,·,·,-1.2,
COc1ccc(/C=C/C(=O)OCC(=O)NC2CCCC(C)C2C)cc1S(=O)(=O)N1CCOCC1 (centres undefined),-1,·,7,-8%,-2.2,
COc1cccc(-c2ccnc3[nH]n(-c4ccccc4)c(=O)c23)c1,0,·,·,·,-4.4,
CCN(CC)S(=O)(=O)c1cccc(-c2cn3cccnc3n2)c1,-5,·,·,-4%,-1.7,
Cn1c(=O)c2c(SCC(=O)NCc3ccco3)nc(CC(C)(C)C)nc2n(C)c1=O,0,-23,-10,-7%,1.1,Arbovirus inh repeat=-17
O=C(CCC(=O)N1CCOc2ccccc21)NCCCN1CCCCC1,-4,·,·,·,-2.8,
Fc1ccc(N2CCN(c3cnc4ccccc4n3)CC2)cc1,7,·,·,·,-1.1,
COc1ccccc1NC(=O)Cc1noc(CSc2n[nH]c(N)n2)n1,-1,·,1,3%,·,
COc1ccc(CNC(=O)c2cc(-c3ccc(OC)c(OC)c3)on2)cc1,28,19,5,5%,-0.8,
O=S(=O)(Nc1ccncc1)c1cc(Cl)c(Cl)cc1Cl,-2,·,·,·,-1.9,
Cc1cccc(NC(=S)N2CCC(N(C)CC3CCCO3)CC2)c1 (centres undefined),1,·,11,·,0.7,
CCOC(=O)c1c(NC(=O)COC(=O)Cn2cnc3c2c(=O)n(C)c(=O)n3C)sc(C)c1CC,75,·,·,·,5.1,
Cc1ccc(NC(=O)CNC(=O)c2ccc3c(c2)OCO3)nc1,1,·,·,·,0.5,
COc1ccc(OC)c(C(c2nnnn2Cc2ccccc2)N2CCN(C)CC2)c1 (centres undefined),10,-16,-4,-2%,0.7,
CCC1CCCCN1CCCNC(=O)c1ccc2c(c1)c(C)c(C)n2C (centres undefined),-4,·,·,·,0.7,
CCCC(=O)Nc1ccc2oc(-c3cccnc3)nc2c1,-6,-38,-2,-13%,-0.5,
O=C(O)c1cccc([N+](=O)[O-])c1C(=O)Nc1nc2ccccc2s1,0,·,5,-5%,·,
Cn1c(SCC(=O)NCc2ccco2)nnc1-c1cccs1,-7,29,6,3%,5.5,
COC(=O)c1ccc(/C=N/n2cnnc2)cc1,-3,-28,-1,2%,-0.2,Arbovirus inh repeat=4
CCOP(=O)(Oc1ccccc1)c1c([N+](=O)[O-])cc(C(F)(F)F)cc1[N+](=O)[O-] (centres undefined),99,·,·,·,9.8,
O=C(c1ccco1)N1CCC(c2ccccc2)C1 (centres undefined),8,-34,-1,3%,0.6,
O=C(NC(=S)Nc1cccc(C(F)(F)F)c1)c1ccc2nonc2c1,-4,·,·,0%,8.2,
CN1CCN(c2ccc(NC(=O)N3CCc4ccccc43)cc2)CC1,-4,·,·,·,-1.2,
CCC(C)(C)NC(=O)C1c2ccccc2Oc2ccccc21,1,·,5,8%,0.0,
O=C(NCc1ccncc1)c1ccc(Br)cc1,-7,-38,5,-17%,0.6,
O=c1n(Cc2ccc(Cl)cc2)c2sc3c(c2c2ncnn12)CCCC3,-5,-31,-33,24%,1.1,
CCCCOc1ccc(Br)cc1/C(C)=N/NC1=NCCN1,95,-110,-36,64%,12,
O=S(=O)(c1ccc2nc(Cc3cccc(C(F)(F)F)c3)[nH]c2c1)N1CCOCC1,-2,-14,2,6%,-1.2,
Cc1sc(-n2c(C)cc(C=O)c2C)c(C(=O)O)c1C,-14,-19,4,7%,0.7,
COc1ccc(NC(=O)COC(=O)c2c3c(nc4ccccc24)CCCC3)cc1,11,-36,-3,-13%,1.8,

# Next section; the last 3 above are carried over.
SMILES,Mtb betalactam,YopH inh,Arbovirus inh,Mtb growth,RecA splice inh,others
O=S(=O)(c1ccc2nc(Cc3cccc(C(F)(F)F)c3)[nH]c2c1)N1CCOCC1,-2,-14,2,6%,-1.2,
Cc1sc(-n2c(C)cc(C=O)c2C)c(C(=O)O)c1C,-14,-19,4,7%,0.7,
COc1ccc(NC(=O)COC(=O)c2c3c(nc4ccccc24)CCCC3)cc1,11,-36,-3,-13%,1.8,
O=C(Nc1cc(S(=O)(=O)N2CCOCC2)ccc1N1CCOCC1)c1cnccn1,-5,-23,2,7%,-1.4,
O=C(O)c1ccc(N/N=C/c2cn(Cc3ccc(F)cc3)c3ccccc23)cc1,10,·,·,4%,5.0,
C/C(=C\C(=O)O)C(=O)Nc1nccs1,6,2,8,-2%,-0.3,
COCCCNC(=O)CCc1c(C)nc2c(c(C)nn2-c2ccccc2)c1C,0,·,·,·,-0.9,
CC1(C)COC(c2ccc(F)c([N+](=O)[O-])c2)=N1,-5,-30,-5,-9%,-9.8,
N/C(=N/[N+](=O)[O-])N1CCN(C(=O)Oc2ccc([N+](=O)[O-])cc2)CC1,1,·,·,·,-1.8,
CCOc1cc(/C=C2/C(=O)ON=C2C)ccc1O,10,·,·,·,11,
CN(C)P1(N(C)C)=NC(C(F)(F)F)=NC(C(F)(F)F)=N1,-2,-54,2,-6%,-7.3,
Cc1ccc([C@@H]2[C@@H]3C(=O)N(C)C(=O)[C@@H]3[C@]3(C)C(=O)N(Cc4ccccn4)CC(=O)N23)o1,-7,·,·,·,-0.2,
NC(Cc1cccc2nsnc12)C(=O)O (centres undefined),-5,-26,1,-8%,-0.6,
O=C(Nc1cccc(C(F)(F)F)c1)c1ccco1,-6,1,4,-4%,1.6,
CN(C)c1ccc(CN(C(=O)c2cccs2)C2CCS(=O)(=O)C2)cc1 (centres undefined),1,·,·,·,-1.7,
Cc1cc(C)n(-c2ncnc3sc4c(c23)CC(C)CC4)n1 (centres undefined),-6,-13,-4,-8%,1.0,Arbovirus inh repeat=-2
CC(=O)N1CCOc2ccc(S(=O)(=O)NCc3ccc(Cl)cc3)cc21,0,·,·,·,-1.3,
Cc1ccc(S(=O)(=O)CCC(=O)Nc2cccc(Cl)c2)cc1,2,·,·,·,-1.8,
CC(=O)Nc1c(O)nc(SCc2ccccc2C#N)[nH]c1=O,0,-24,7,-2%,-0.2,
CCCn1c(C)cc(C(=O)COc2ccc(-c3nnco3)cc2)c1C,23,·,10,1%,1.2,
O=C(C1CCCN(S(=O)(=O)Cc2ccccc2)C1)N1CCCCC1 (centres undefined),-1,-28,7,-4%,7.3,
Cc1nnc2c3ccccc3c(-c3ccc(O)cc3)nn12,-12,-18,-9,·,-8.5,
O=C(NC1CCN(C(=S)Nc2ccc(Cl)cc2)CC1)c1ccco1,-4,·,·,·,-0.7,
CC(=O)Nc1ccc(S(=O)(=O)N/N=C/c2ccc(C)s2)cc1,-2,-23,3,2%,-1.0,
O=C(COC(=O)/C=C/c1ccco1)NCCc1ccccc1,-14,·,18,-3%,-0.7,
O=C(CSc1ccc2ccccc2c1)N1CCN(c2ccc(O)cc2)CC1,-6,·,·,-10%,-1.8,
CC1CC(=O)N(CC(=O)Nc2ccccc2F)c2ccccc2S1(=O)=O (centres undefined),2,·,·,·,0.7,
O=C(Cn1cnc2ccccc2c1=O)OCCCCN1C(=O)c2ccccc2C1=O,1,-10,3,-6%,-0.2,
O=C(c1ccc(Oc2ccccc2)cc1)c1nc2c(n1O)CCCC2,?,-22,-1,10%,4.2,
CC(=O)Nc1nonc1-c1nc2ccccc2n1CCC(C)C,·,-39,-14,·,3.8,
C=C(C)CNC(=O)C1CCC(=O)N(CCCc2ccccc2)C1 (centres undefined),0,·,·,·,-0.8,
O=C(NCc1n[nH]c(=S)n1-c1ccccc1)c1ccc(S(=O)(=O)N2CCOCC2)cc1,-1,-30,7,-4%,5.2,
CC(C)Nc1nc(Cl)nc(NN(C)c2nc(N(C)C)nc(N(C)C)n2)n1,-3,-15,2,5%,-0.3,
CCn1c(COc2ccccc2)nnc1SCC(=O)Nc1cc(C)ccc1OC,·,6,7,-3%,1.8,
CN1C[C@H](C(=O)NC2(C)OC3(O)[C@@H]4CCCN4C(=O)[C@H](Cc4ccccc4)N3C2=O)CC2c3cccc4[nH]cc(c34)C[C@H]21 (some centres undefined),6,·,·,12%,-0.3,
Cc1ccc(S(=O)(=O)CC(=O)Nc2nnc(C(C)(C)C)s2)cc1,-11,·,·,·,0.7,
COc1cc(OC)cc(C(=O)N[C@H](C(=O)OCC(=O)Nc2ccc(C(C)C)cc2)C(C)C)c1,-3,-32,23,-5%,2.0,
Cn1c2ccccc2c2ncn(CCN3CCOCC3)c(=O)c21,-9,-13,7,-6%,12,
COC(=O)c1cccc(NC(=O)Cc2nc(-c3ccccc3)sc2-c2ccc(C)cc2)c1,17,-11,3,3%,1.2,
COC(=O)c1cnn(-c2ccccc2)c1/C=N/NC(=S)Nc1ccccc1,12,·,·,1%,·,
Cc1cc(C(=O)N2CCN(C/C=C/c3ccccc3)CC2)no1,-7,-36,-1,1%,-0.5,

# Compound activity (PubChem)
